From PubChem
StopGo RLuc: lowers the Renilla signal of an FMDV 2A StopGo reporter; Potency, µM (highest dose often 57.5 µM), without a hit: top-dose signal change, negative = less light; HEK cells with a luciferase reporter of 2A StopGo recoding; hit rate 0.32% among 120,000; active means well fitted falling curve with a large enough effect; inconclusive means small, poorly fitted or top-dose-only effect; inactive means no such curve, though single readings can be large or run the other way; further: nearly all actives have a fitted effect of over 55% in size; overnight with compound
2A firefly: FMDV 2A StopGo reporter, firefly signal. HEK cells with a luciferase reporter of 2A StopGo recoding. Potency, µM (series often up to 57.5 µM), for inactives: at the top dose signal change, negative = less light. hit rate 0.23% among 120,000. AID 1745856; active = well fitted falling curve with a large enough effect; inconclusive = small, poorly fitted or top-dose-only effect; inactive = no such curve, though single readings can be large or run the other way; further: nearly all actives have a fitted effect of over 60% in size; overnight with compound
* hit, by the source's call; [ ] = another dose, or the depositor's remark. On the % scale 0 is the no-effect control and ±100 the full control effect; potency means the concentration at half of the fitted maximal effect.

For CCNS(=O)(=O)c1ccc(C)c(C(=O)NCC(O)c2cccc(Cl)c2)c1 (stereo not given) the results were StopGo RLuc 13.8% and 2A firefly -10.8%.
Screening O=C(/C=C/c1cccc([N+](=O)[O-])c1)c1ccc(-c2ccccc2)cc1 returned StopGo RLuc 8.8% and 2A firefly 0.0%.
N#CC1=C(N)Oc2n[nH]c(-c3ccc4ccccc4c3)c2C1c1ccc(O)cc1 (stereo not given) was read as StopGo RLuc -4.4% and 2A firefly 14.3%.
For CC1=C(c2ccc(C)c(C)c2)S(=O)(=O)N=C1N1CCC(C(=O)N2CCC(C)CC2)CC1 the results were StopGo RLuc 13.7% and 2A firefly -4.6%.
`O=C(CSc1nccn2nc(-c3ccccc3)cc12)N1CCN(c2ccccc2F)CC1` gave StopGo RLuc 1.7% and 2A firefly 23.3%.
Screening COc1cc(OC)c2c(C)c(CC(=O)NC3CC(C)(C)NC(C)(C)C3)c(=O)oc2c1 returned StopGo RLuc -11.0% and 2A firefly -15.4%.
Screening Cc1cccc(NC(=O)c2cc(-c3ccc(C)o3)nc3ccccc23)c1 returned StopGo RLuc -7.5% and 2A firefly 20.0%.
`CCn1c(SC(C)C(=O)Nc2nccs2)nnc1-c1ccco1` (stereo not given) gave StopGo RLuc -5.3% and 2A firefly -1.9%.
Screening CCN(C(=O)CSCc1ccco1)C1CCCCC1 returned StopGo RLuc 2.4% and 2A firefly -2.9%.
COc1ccc(NC(=O)CSC2=Nc3ccccc3C3=NC(CCC(=O)NC4CCCCC4)C(=O)N23)cc1Cl (stereo not given) was read as StopGo RLuc 6.7% and 2A firefly -2.5%.
Nc1nnnn1NCc1c(OCc2ccc(Cl)cc2Cl)ccc2ccccc12 was read as StopGo RLuc 15.6% and 2A firefly 8.3%.
Screening C#Cc1ccc(-c2ccccc2F)cc1 returned StopGo RLuc -6.0% and 2A firefly -15.6%.
For Brc1cccc(-c2nnn3c2nc(N2CCCCC2)c2ccccc23)c1 the results were StopGo RLuc -7.2% and 2A firefly -22.2%.
Screening Cc1nc(Nc2ccccc2)sc1C(=O)Nc1ccccc1 returned StopGo RLuc -5.5% and 2A firefly 174.2%[activator].
Cc1cccc(NC(CNS(=O)(=O)c2ccccc2)c2ccccc2)c1 (stereo not given) was read as StopGo RLuc 100.1%[activator] and 2A firefly -10.2%.
For Cc1ccc2[nH]c3c(=O)n(CC(=O)N4CCN(c5cccc(C(F)(F)F)c5)CC4)ncc3c2c1 the results were StopGo RLuc -9.5% and 2A firefly -13.3%.
For CN(C)CCOC(=O)C1(c2ccccc2)CCCC1 the results were StopGo RLuc 3.3% and 2A firefly 0.7%.
Cc1ccc(CCNC(=O)c2ccc3c(c2)nc2n3CCOC2)cc1 was read as StopGo RLuc 3.3% and 2A firefly 23.7%.
`CCCC1CCC(c2ccc(OC(=O)c3ccncc3)cc2)CC1` (stereo not given) gave StopGo RLuc -4.7% and 2A firefly 1.0%.
COc1ccc(-c2cc(C(F)(F)F)nc(SCCC(=O)Nc3cccc(OC)c3)n2)cc1 was read as StopGo RLuc 104.6%[activator] and 2A firefly -7.9%.
C=CCn1cc(/C=C2/NC(=O)N(CC)C2=O)c2ccccc21 was read as StopGo RLuc 19.9% and 2A firefly 33.3%.
CCNC(=O)C1CCCN(Cc2ccc(C(F)(F)F)cc2)C1 (stereo not given) was read as StopGo RLuc 0.3% and 2A firefly 24.4%.
For CN1C(=O)Cc2cc(S(=O)(=O)CCC(=O)Nc3ccc(Cl)c(C(F)(F)F)c3)ccc21 the results were StopGo RLuc -24.0% and 2A firefly -14.3%.
Cc1nc(Nc2ccc(NC(=O)c3cccs3)cc2)cc(N(C)C)n1 was read as StopGo RLuc 14.2% and 2A firefly 5.2%.
For Cc1ccc(NC(=O)CC2Sc3ccc(C(F)(F)F)cc3NC2=O)cc1Cl (stereo not given) the results were StopGo RLuc -1.1% and 2A firefly 4.6%.
CCOc1cc(-c2nc(-c3ccc(Br)cc3)no2)cc(OCC)c1OCC was read as StopGo RLuc -13.0% and 2A firefly -6.6%.
CC(C)CCNC(=O)C1CCN(S(=O)(=O)c2cccc3nsnc23)CC1 was read as StopGo RLuc -8.4% and 2A firefly -18.2%.
`Cc1ccc(-n2c(-c3ccco3)nc3c(cnn3-c3ccccc3C)c2=O)cc1` gave StopGo RLuc -4.8% and 2A firefly 12.0%.
CCc1ccc(C(C)NC(=O)Cn2nc(-c3ccc(F)cc3)oc2=O)cc1 (stereo not given) was read as StopGo RLuc 2.2% and 2A firefly 10.0%.
Cn1nc(C(=O)OCC(N)=O)c2ccccc2c1=O was read as StopGo RLuc -11.6% and 2A firefly -7.6%.
Cc1ccccc1-c1nc(SCC(=O)NCc2ccc(F)cc2)c2c(=O)n(C)c(=O)n(C)c2n1 was read as StopGo RLuc -5.9% and 2A firefly -10.1%.
For COc1nc(-c2ccc(C)cc2)ccc1-c1noc(-c2ccc(C(C)(C)C)cc2)n1 the results were StopGo RLuc -6.2% and 2A firefly -0.3%.
CCOc1ncccc1C(=O)N(Cc1nnc(-c2ccccc2Cl)o1)C1CC1 was read as StopGo RLuc -0.7% and 2A firefly -5.0%.
Nc1ccc2oc(-c3ccccc3)cc2c1 was read as StopGo RLuc 7.0% and 2A firefly 155.3%[activator].
`Cc1ccc(CN2CCCN(c3cccc(C(=O)N4CCc5ccccc54)c3)C2=O)cc1` gave StopGo RLuc -13.0% and 2A firefly inconclusive.
Screening CC(C)Cn1c(=O)c2c(ncn2Cc2ccco2)n(Cc2ccccc2)c1=O returned StopGo RLuc -5.7% and 2A firefly -4.3%.
CCn1c2ccccc2c2cc(CN3CCN(Cc4cc(OC)c(O)c(OC)c4)CC3)ccc21 was read as StopGo RLuc -15.4% and 2A firefly -13.9%.
`CCOC(=O)c1ccc(CN(Cc2ccc(Cl)cc2Cl)S(=O)(=O)c2cccc(Cl)c2)cc1` gave StopGo RLuc 0.3% and 2A firefly -4.9%.
`COc1cc(C(C)N)ccc1OCCC(C)C` (stereo not given) gave StopGo RLuc -16.7% and 2A firefly -0.6%.
For CCCNc1c(NC(=O)CC(=O)OCC)c(=O)oc2ccccc12 the results were StopGo RLuc 6.4% and 2A firefly 3.6%.
For Cc1ccc(-n2nc3c(=O)n(C(C)C(=O)O)nc(C)c3c2C)cc1 (stereo not given) the results were StopGo RLuc -3.9% and 2A firefly 0.0%.
NC(=O)c1ccc(NC(=O)Cn2ccc3ccc(Cl)cc32)cc1 was read as StopGo RLuc 82.2%[activator] and 2A firefly 16.5%.
O=C(Nc1ccc(OC(F)F)cc1)c1cc2ccccc2[nH]1 was read as StopGo RLuc 58.0%[activator] and 2A firefly 194.7%[activator].
COCCCNC(=O)CN1C(=O)c2c(c3ccccc3n2C)C1c1ccc(OC)cc1 (stereo not given) was read as StopGo RLuc 1.2% and 2A firefly -7.3%.
CC(=O)Nc1nonc1-c1nnc(SCc2ccccc2F)n1C was read as StopGo RLuc 2.7% and 2A firefly 39.2%[activator].

Copied from above for reference:
COCCCNC(=O)CN1C(=O)c2c(c3ccccc3n2C)C1c1ccc(OC)cc1 (stereo not given) was read as StopGo RLuc 1.2% and 2A firefly -7.3%.
CC(=O)Nc1nonc1-c1nnc(SCc2ccccc2F)n1C was read as StopGo RLuc 2.7% and 2A firefly 39.2%[activator].

Molecules listed so far containing two or more sulfur atoms, in the order listed:
`CCn1c(SC(C)C(=O)Nc2nccs2)nnc1-c1ccco1` (stereo not given) gave StopGo RLuc -5.3% and 2A firefly -1.9%.
CC(C)CCNC(=O)C1CCN(S(=O)(=O)c2cccc3nsnc23)CC1 was read as StopGo RLuc -8.4% and 2A firefly -18.2%.

Continuation.
`Cc1ccc(CN2CCCN(c3ccc(C(=O)NCc4ccc5c(c4)OCO5)cc3)C2=O)cc1` gave StopGo RLuc -6.1% and 2A firefly inconclusive.
`Cc1ccccc1CNCCN1CCCC1` gave StopGo RLuc -0.5% and 2A firefly -8.2%.
Screening O=C1CN(C(=O)c2cc(=O)[nH]c3ccccc23)CCN1 returned StopGo RLuc 7.1% and 2A firefly 1.1%.
Screening CC(Nc1ccc2oc(C3CC3)nc2c1)C(=O)NC(=O)NC1CC1 (stereo not given) returned StopGo RLuc -6.5% and 2A firefly 7.8%.
Screening CC(C)CN1C(=O)C(=O)N(Cc2ncc(-c3ccc(Cl)cc3)o2)C1=O returned StopGo RLuc -6.3% and 2A firefly -1.6%.
Nc1nccnc1C(=O)Nc1cccc(F)c1 was read as StopGo RLuc -6.8% and 2A firefly 189.8%[activator].
Screening Cc1ccc(-n2ncc3c(=O)n(-c4ccc5c(c4)OCCO5)c(-c4ccco4)nc32)cc1C returned StopGo RLuc 4.4% and 2A firefly 12.5%.
For Cc1[nH]c2ccc(Br)cc2c1CCNC(=O)c1cc2ccccc2oc1=O the results were StopGo RLuc -8.1% and 2A firefly -6.9%.
`O=C(O)CCNS(=O)(=O)c1cccc(F)c1` gave StopGo RLuc 4.4% and 2A firefly -7.0%.
Screening CCOC(=O)c1sc(NC(=O)c2cc(CC)on2)c(C(=O)OCC)c1C returned StopGo RLuc -4.3% and 2A firefly -1.8%.
For CCOC(=O)c1ccc(NC(=O)c2ccc(=O)n(Cc3cccc(C)c3)c2)cc1 the results were StopGo RLuc inconclusive and 2A firefly inconclusive.
For CCOc1ccc(/C=C/C(=O)Nc2sc3c(c2C(=O)OC)CCC3)cc1 the results were StopGo RLuc 45.4%[activator] and 2A firefly 84.9%[activator].
Screening COc1ccc(OC)c(C(C)NC(=O)Cc2ccsc2)c1 (stereo not given) returned StopGo RLuc 9.8% and 2A firefly inconclusive.
`Cc1cc(C)c(C(=O)COC(=O)c2cccs2)c(C)c1` gave StopGo RLuc -1.5% and 2A firefly 6.9%.
Screening COc1ccc(CN(C)C(=O)c2cc(=O)[nH]c3ccccc23)c(OC)c1 returned StopGo RLuc 36.6%[activator] and 2A firefly -3.9%.
`COc1ccc(-c2c[nH]c3c(SCC(=O)Nc4ccc(OC)c(OC)c4)ncnc23)cc1` gave StopGo RLuc -3.8% and 2A firefly 48.5%[activator].
Cc1ccc(N2CC(NC(=O)Cc3ccc(F)cc3)CC2=O)cc1C (stereo not given) was read as StopGo RLuc -8.9% and 2A firefly -13.6%.
For COc1ccc(-c2cnc(N)nc2-c2ccc(OCc3ccc(F)cc3)cc2O)cc1OC the results were StopGo RLuc 8.3% and 2A firefly -4.7%.
`CCC1CN(S(=O)(=O)c2cc(-c3cc(C)no3)ccc2OC)c2cc(Cl)ccc2O1` (stereo not given) gave StopGo RLuc 129.0%[activator] and 2A firefly 11.7%.
For COc1ccccc1CNC(=O)c1c(O)nc2c(C)cccn2c1=O the results were StopGo RLuc 35.5µM* and 2A firefly inconclusive.
For Cc1cc(C)c(OCC(=O)Nc2nonc2-c2ccccc2)c(C)c1 the results were StopGo RLuc 4.5% and 2A firefly -0.5%.
For CCOC(=O)c1ccc(NC(=O)CSc2nc3ccccc3c(=O)n2CCC(=O)NC2CCCCC2)cc1 the results were StopGo RLuc -13.9% and 2A firefly -8.0%.
CN1CCN(C(CNCC(O)COC2CCCc3ccccc32)c2cccs2)CC1 (stereo not given) was read as StopGo RLuc -13.5% and 2A firefly -24.8%.
Cc1c(Cl)ccc2sc(N3CCN(C(=O)CS(=O)(=O)c4ccccc4)CC3)nc12 was read as StopGo RLuc 0.0% and 2A firefly 0.0%.
CC(=O)NCc1ccc(-c2csc(NC3CC3)n2)s1 was read as StopGo RLuc -18.1% and 2A firefly 0.7%.
Screening CCOC(=O)c1ccc(Nc2nc(-c3cc4cc(Br)ccc4oc3=O)cs2)cc1 returned StopGo RLuc -19.4% and 2A firefly -10.1%.
N#Cc1nc(C2CC2)oc1N1CCN(C(=O)c2cncc(Br)c2)CC1 was read as StopGo RLuc -5.6% and 2A firefly -4.0%.
Screening COC(=O)c1ccc2c(=O)n(CCCCCC(=O)N3CCN(c4ccc(OC)cc4)CC3)c(=O)[nH]c2c1 returned StopGo RLuc 4.4% and 2A firefly 41.1%[activator].
`CCOc1ccccc1NC(=O)COc1ccc(S(=O)(=O)NC2CCCCC2)cc1` gave StopGo RLuc 256.4%[activator] and 2A firefly -13.4%.
O=C(CCn1cccn1)Nc1ccc(Br)cc1F was read as StopGo RLuc -9.6% and 2A firefly 26.7%.

Overlap with the part before: two entries, followed by the next part.
`CCOc1ccccc1NC(=O)COc1ccc(S(=O)(=O)NC2CCCCC2)cc1` gave StopGo RLuc 256.4%[activator] and 2A firefly -13.4%.
O=C(CCn1cccn1)Nc1ccc(Br)cc1F was read as StopGo RLuc -9.6% and 2A firefly 26.7%.
CCOc1ccccc1NC(=O)C1CCCN(S(=O)(=O)c2cccs2)C1 (stereo not given) was read as StopGo RLuc 17.1% and 2A firefly -11.8%.
CCOC(=O)c1cnc2c(ccc3ccccc32)c1Nc1ccc(N(C)C)cc1 was read as StopGo RLuc 6.6% and 2A firefly 4.1%.
Screening N#C/C(=C\C=C\c1ccco1)C(=O)NC1CCCCCC1 returned StopGo RLuc 16.1% and 2A firefly 0.0%.
COc1ccc(S(=O)(=O)c2c(C)c(C)n(C(C)C)c2NC(=O)c2cccs2)cc1 was read as StopGo RLuc 3.2% and 2A firefly -4.3%.
Cc1cccc(-c2nc(CSCC(=O)NCCc3ccc(Cl)cc3)c(C)o2)c1 was read as StopGo RLuc -8.6% and 2A firefly 6.6%.
`O=C(CN1CCN(Cc2nc3ccccc3o2)CC1)NC1CC1` gave StopGo RLuc -11.0% and 2A firefly -2.9%.
C/C(=N/O)C(C)N(O)C(C)/C(C)=N/O (stereo not given) was read as StopGo RLuc -3.5% and 2A firefly -4.9%.
COc1ccc(OC)c(NC(=O)Cn2c(=O)n(Cc3ccccc3)c(=O)c3ccccc32)c1 was read as StopGo RLuc 15.2% and 2A firefly -8.6%.

These rows are one share of the data; rates above refer to the full screens.
